NS1 function inh – inhibitors of influenza NS1 protein function | S. cerevisiae slowed by influenza A NS1, growth recovery by OD600 | Potency, µM (titrated, usually from 46.1 µM), inactives show at the top dose activity, positive = more growth | hit rate 0.4% among 270,000; also: actives are rising curves; nearly all actives have a fitted effect of over 50% in size
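Compounds were scored for reversing the slow growth caused by influenza A NS1 in S. cerevisiae, measured by optical density at 600 nm. Assay medium contained 2% galactose at pH 6.0; NS1-free yeast of the same strain were the positive control.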
Cruzain inh Det – blocks cruzain activity in presence of Triton detergent. P25779. purified cruzain, Z-FR-AMC fluorescence, 0.01% Triton. Potency, µM, inactives show max response, negative = inhibition, most hits filed as inhibitors. hit rate 0.43% among 200,000. AID 1478; active = well fitted curve in the direction sought with a large enough effect; inconclusive = small, poorly fitted or top-dose-only effect, or another doubt; inactive = no such curve, though single readings can be large; an effect the other way counts as inactive or inconclusive;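 also: plate controls were neutral wells for no effect and buffer without enzyme for full effect; nearly all actives have a fitted effect of over 40% in size; top concentration of the series not given in the record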
Target sequence (P25779 123-467 limits assumed): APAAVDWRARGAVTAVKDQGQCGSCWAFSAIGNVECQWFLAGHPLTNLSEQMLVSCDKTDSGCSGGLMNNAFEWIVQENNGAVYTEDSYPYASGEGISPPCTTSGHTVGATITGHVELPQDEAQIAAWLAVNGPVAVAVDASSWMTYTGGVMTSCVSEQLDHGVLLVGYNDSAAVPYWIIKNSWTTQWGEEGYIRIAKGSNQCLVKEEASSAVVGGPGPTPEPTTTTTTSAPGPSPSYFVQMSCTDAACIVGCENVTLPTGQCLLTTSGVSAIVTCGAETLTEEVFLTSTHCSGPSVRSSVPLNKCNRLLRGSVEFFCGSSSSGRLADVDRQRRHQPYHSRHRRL
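Cruzain (1.5 nM) preincubated 15 min at RT with compound in 100 mM sodium acetate pH 5.5, 5 mM DTT, 0.01% Triton X-100. Reaction started with 2 uM Z-FR-AMC; AMC fluorescence (ex 360/em 450 nm) change over 60 s gave rate.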
StopGo reporter – lowers the luciferase signal of an FMDV 2A StopGo reporter; hit rate 1.2% among 410,000; human cells with a luciferase reporter of 2A StopGo recoding; control for the full effect not named in the record; Potency, µM (top dose mostly 57.9 µM), without a hit: at the highest dose signal change, negative = less light; active = well fitted falling curve with a large enough effect; inconclusive = small, poorly fitted or top-dose-only effect; inactive = no such curve, though single readings can be large or run the other way; tested in HEK293T cells; also: % is scaled to controls: 0 for no effect and ±100 for the full control effect; nearly all actives have a fitted effect of over 45% in size; luciferase light after 4 h
SARS PLP yeast – inhibitors of SARS-CoV papain-like protease in yeast. hit rate 0.19% among 330,000. Potency, µM (doses to about 32.9 µM), for inactives: at the highest dose activity, positive = growth rescue. AID 485353. S. cerevisiae expressing SARS-CoV PLpro, growth rescue; control for the full effect not named in the record; also: 0% is about no effect; nearly all actives have a fitted effect of over 55% in size; growth read by luminescence after 48 h
Lassa entry inh – inhibitors of Lassa virus binding or cell entry | hit rate 1.2% among 300,000 | Lassa virus pseudotype entry inhibition, cell reporter; control for the full effect not named in the record | Potency, µM (titrated, usually from 37.9 µM), for inactives: top-dose activity change, negative = inhibition, actives largely listed as inhibitors; active means well fitted inhibition curve with a large enough effect; inconclusive means small, poorly fitted or top-dose-only effect, or effect the other way; inactive means flat fitted curve, though single readings scatter; tested in HEK293 cells; also: % is scaled to controls: 0 for no effect and ±100 for the full control effect; nearly all actives have a fitted effect of over 50% in size; luciferase read-out
Marburg entry inh – inhibitors of Marburg virus binding or cell entry. Marburg virus pseudotyped entry inhibition, cell reporter; control for the full effect not named in the record; about a third of the inactives were read at about 46 µM. Potency, µM (doses to about 37.8 µM), for the others: top-dose activity change, negative = inhibition, most hits filed as inhibitors. hit rate 1.8% among 300,000. AID 540276; active = well fitted inhibition curve with a large enough effect; inconclusive = small, poorly fitted or top-dose-only effect, or effect the other way; inactive = flat fitted curve, though single readings scatter; tested in HEK293 cells; about a fifth of its hits are not listed in these tables; also: % is scaled to controls: 0 for no effect and ±100 for the full control effect; luciferase read-out
RE007 growth inh – less growth of the S. pombe RE007 Vpr strain. AID 651644. S. pombe RE007 Vpr strain, BacTiter-Glo ATP luminescence, 24 h; control for the full effect not named in the record. Potency, µM (series often up to 92.2 µM), for the others: at the top dose activity change, negative = less growth. hit rate 0.21% among 360,000; active = well fitted falling curve with a large enough effect; inconclusive = small, poorly fitted or top-dose-only effect; inactive = no such curve, though single readings can be large or run the other way;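 also: % is scaled to controls: 0 for no effect and ±100 for the full control effect; nearly all actives have a fitted effect of over 50% in size; the assay follows cell death caused by Vpr and the record does not say whether a fall means rescue or toxicity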
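Fission yeast RE007 carrying one integrated HIV-1 vpr copy, seeded at OD 0.01 in PMG+AL medium with 23 nL pinned compound. Grown 24 h at 30 degrees; viability read by BacTiter-Glo luminescence after 5 min.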
Cruzain noTriton – cruzain (T. cruzi) inhibition without detergent | purified cruzain, Z-FR-AMC fluorescence, no detergent | Potency, µM, for inactives: max response, negative = inhibition, most hits filed as inhibitors | hit rate 2.3% among 200,000; active = well fitted curve in the direction sought with a large enough effect; inconclusive = small, poorly fitted or top-dose-only effect, or another doubt; inactive = no such curve, though single readings can be large; an effect the other way counts as inactive or inconclusive;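 also: plate controls were enzyme without inhibitor for no effect and buffer without enzyme for full effect; nearly all actives have a fitted effect of over 40% in size; top concentration of the series not given in the record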
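Detergent-free condition (0.00005% Triton X-100) in acetate buffer pH 5.5 with DTT. 1.5 nM enzyme and compound were pre-mixed 15 min, then 2 uM Z-FR-AMC substrate added; reaction progress from fluorescence change between first and third reads (60 s).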
* = called active by the depositor; ? = inconclusive; . = not tested or not shown; & = joins results of further samples; [ ] = dose if it differs, or a comment. Unless noted, calls follow the shape of the dose curve; as a rule, active means well fitted rising curve with a large enough effect; inconclusive means small, poorly fitted or top-dose-only effect; inactive means no such curve, though single readings can be large or run the other way. Potency is read from the fitted curve at half-maximal effect. Compounds as they come (roughly 4.7% active in at least one column).

SMILES	NS1 function inh	Cruzain inh Det	StopGo reporter	SARS PLP yeast	Lassa entry inh	Marburg entry inh	RE007 growth inh	Cruzain noTriton
CC1Cc2ccccc2N1CC(=O)NC(=O)NC(C)(C)C (stereo not drawn)	.	.	-12%	-1%	.	-18%[46.1 µM]	9%	.
CC(=O)N1CCC2(CC1)C(C#N)=C(N)Oc1n[nH]c(C)c12	4%	0.3%	4%	0%	11%	-2%	17%	-8%
O=C1CCc2cc(S(=O)(=O)N3CCC(C(=O)NCCC4=CCCCC4)CC3)ccc2N1	-5%	7.1%	-13%	-5%	.	.	-1%	5%
COc1ccc(C(C(=O)NC(C)(C)C)N(C(=O)CCC(=O)Nc2cc(C)on2)c2ccc3c(c2)OCCO3)cc1 (stereo not drawn)	6%	.	5%	2%	.	-19%[46.1 µM]	-1%	.
O=S(=O)(c1cccc(Cl)c1Cl)N1CCN(C(=S)NCCCN2CCOCC2)CC1	5%	.	-26%	-1%	3%	-17%[46.1 µM]	-13%	.
O=C1c2ccncc2C(=O)N1CNc1ccc(Cl)cc1	.	.	-10%	2%	-14%[46.1 µM]	-10%[46.1 µM]	-3%	.
CCC(=O)N1CCN(c2ccc(NC(=S)NC(=O)C(C)C)cc2)CC1	11%	.	-11%	-1%	.	.	4%	.
CCn1c(SCC(=O)N(C)CCC#N)nc2cc(S(=O)(=O)N3CCOCC3)ccc21	.	.	-14%	4%	0%	-8%	3%	.
O=C(c1ccc(F)cc1)N1CCC(N2CCOCC2)CC1	-2%	0.5%	12%	0%	8%	0%	-1%	-15%
CCCNC(=O)c1cc2ccccc2c(=O)o1	-13%	-4.5%	36%[activator]	-6%	16%	27%	21%	-5%
NS(=O)(=O)c1ccc(CNC(=O)CNC(=O)c2ccc(Br)o2)cc1	5%	.	-2%	9%	?	21%[46.1 µM]	-8%	.
COCC(C)NCc1ccc(OC)c(Br)c1 (stereo not drawn)	.	.	8%	-1%	24%[46.1 µM]	-20%[46.1 µM]	15%	.
CCc1nnc(NC(=O)c2c(C)nn(-c3ccccc3)c2Cl)s1	-40%	-0.3%	-23%	2%	0%	13%	11%	-1%
CC(=O)Nc1ccc2c(c1)CCc1ccccc1-2	-34%	.	32%[activator]	-5%	0%[46.1 µM]	?	-18%	.
Cc1ccc2nc(CN3CCN(S(=O)(=O)c4ccc(C)c(C)c4)CC3)oc2c1	.	-0.2%	-25%	.	16%[46.1 µM]	.	.	3%
CC(C)C(NC(=O)OCc1ccccc1)C(=O)OCC(=O)NC1CC1 (stereo not drawn)	.	.	4%	0%	?	-25%[46.1 µM]	-19%	.
O=C(NCc1ccc(OC(F)(F)F)cc1)C1CCC(=O)N(C2CC2)C1 (stereo not drawn)	5%	.	-17%	-5%	1%	?	-12%	.
CCOc1ccccc1C1c2cc3c(cc2OC(C)(N2CCCC2)C1C)OCO3 (stereo not drawn)	.	.	4%	.	13%	19%[46.1 µM]	-14%	.
Nc1nc(NC(=O)c2ccccc2)nn1-c1ccccc1	-4%	0.4%	53%[activator]	9%	21%	?	15%	-9%
Cc1cccc(OP(N)(=O)Oc2cccc(C)c2C)c1C	-3%	.	-15%	0%	.	.	-20%	.
Cc1cccc(C)c1NC1=NCCCCS1	4%	2.1%	-3%	11%	-4%	-6%	-28%	-6%
Cc1cc(C)c2nc(N3CCN(C)CC3)c(C#N)cc2c1	6.3µM*	4.7%	-4%	-4%	13%	?	2%	1%
O=C(NC1CCSc2ccccc21)c1ccccc1F (stereo not drawn)	-8%	.	15%	3%	-13%[46.1 µM]	-15%[46.1 µM]	-13%	.
COc1ccc(-n2c(COc3ccc(C)cc3)nnc2SCc2ccc(C#N)cc2)cc1	0%	-3.3%	-25%	-10%	-16%	?	5%	5%
Cc1cc(-c2n[nH]c(=S)n2/N=C/c2ccco2)n[nH]1	5%	.	-9%	1%	.	.	2%	.
CCOC(=O)Cc1nnc(NC(=O)CSc2ncc(-c3ccccc3)nn2)s1	.	.	-13%	4%	-14%	-19%[46.1 µM]	6%	.
Cc1ccc(C(=O)c2cc([N+](=O)[O-])ccc2N2CCOCC2)cc1C	5%	-9.6%	?	-7%	?	?	-9%	-14%
Cc1ccccc1NC(=O)Cc1nc(COC(=O)CCNS(=O)(=O)c2ccccc2)cs1	.	.	-22%	1%	12%	?	11%	.
CC(C)(C)OC(=O)N1Cc2ccccc2C[C@H]1C(=O)NC1CCCC1	4%	.	-10%	1%	-15%	?	9%	.
S=c1[nH]nc(CCSCc2ccccc2)n1-c1ccccc1	9%	.	16%	0%	.	.	7%	.
CCC(CC)c1nnc(NC(=O)c2cc(-c3ccccc3)nc3ccccc23)s1	10%	-9.7%	-13%	13%	14%	3%	18%	?
COc1ccc(CCC(=O)NCCNC(=O)CCc2ccc(OC)cc2)cc1	11%	.	-4%	-4%	.	.	-5%	.
O=C1C=CC(=O)N1Cc1cccnc1	.	.	16%	.	14%[46.1 µM]	9%[46.1 µM]	0%	.
O=C(NC1=NCCS1)c1ccc(Cl)cc1	-58%	.	65%[activator]	-10%	.	.	-2%	.
Cc1ccc(C(=O)O/N=C(\N)c2ccc(C(F)(F)F)cn2)cc1	-1%	.	31%[activator]	-3%	-10%[46.1 µM]	12%[46.1 µM]	7%	.
CCOC(=O)C1=C(CN2CCOCC2)NC(=O)NC1c1cccc([N+](=O)[O-])c1 (stereo not drawn)	1%	.	-10%	0%	-2%	0%[46.1 µM]	-3%	.
O=S(=O)(NCc1cccnc1)c1ccc(Cl)c2ccccc12	-4%	.	35%[activator]	1%	1%[46.1 µM]	?	6%	.
CC(=O)c1ccc(NC(=S)NCCCn2ccnc2)cc1	.	.	67%[activator]	0%	25%	-5%	10%	.
CC1=C(C(=O)OCc2ccccc2)C(c2cccc(Br)c2)NC(=O)N1 (stereo not drawn)	15%	.	?	-4%	.	.	-30%	.
CN(Cc1ccccc1)S(=O)(=O)c1ccc(NC(=O)C2CCCO2)cc1 (stereo not drawn)	-14%	-2.7%	-15%	3%	3%	6%	8%	6%
COCCN=C1Sc2nc3ccc(C)cc3cc2CN1Cc1ccco1	-15%	-1.5%	0%	-6%	19%	-10%	14%	0%
Cc1[nH]c2ccccc2c1SCCNC(=O)c1ccc(Br)o1	-62%	-10%	.	-15%	?	?	15%	-5%
Cc1onc(-c2ccccc2)c1NC(=O)Nc1ccc(OC(F)F)cc1	-4%	.	-9%	1%	.	.	6%	.
COc1cccc(C2C(C#N)=C(N)N(N(C)C)C3=C2C(=O)CCC3)c1 (stereo not drawn)	6%	.	0%	-1%	.	.	-7%	.
COc1cc(CNc2ccc3[nH]c(=O)[nH]c3c2)ccc1OCc1ccccc1C	3%	.	?	-2%	-11%	-22%	2%	.
COc1cc(CN(C(=O)c2ccccc2F)C2CCS(=O)(=O)C2)cc(OC)c1OC (stereo not drawn)	.	-2.2%	-14%	.	?	15%[46.1 µM]	.	-4%
CCOc1ncccc1C(=O)OCc1ccc(Cl)cc1	-25%	-5.0%	-10%	-10%	?	-29%	2%	-6%
COc1ccc(S(=O)(=O)N/N=C/c2ccc(OCCN3CCOCC3)c(OC)c2)cc1	6%	0.3%	-6%	-8%	?	?	3%	3%
Cc1cccc(C(=O)NC2CC3CCCC(C2)N3S(=O)(=O)c2ccccc2)c1 (stereo not drawn)	4%	2.7%	.	-4%	13µM*	?	1%	10%
CCOC(=O)Cc1csc(NC(=O)C2CCCCC2C(=O)O)n1 (stereo not drawn)	7%	-1.8%	-9%	-4%	1%	4%	-8%	1%
C=CCNC(=O)C(=O)Nc1cc2c3c(c1)CCC(=O)N3CCC2	-11%	.	-5%	-5%	.	.	3%	.
COc1ccc(OCC(=O)NCc2ccc3c(c2)CCN3C(=O)c2ccccc2)cc1	.	-2.1%	-16%	.	?	.	.	4%
COc1ccc(S(=O)(=O)N2CCN(C(=O)c3ccc(C)o3)CC2)cc1	7%	.	-25%	-1%	-21%	?	-4%	.
CCCCNC(=O)Cn1cnc2sc(C)c(S(=O)(=O)N3CCN(c4ccccc4OC)CC3)c2c1=O	17%	1.0%	-4%&16%	-2%	-2%	20%&-3%[46.1 µM]	1%	9%
O=C(OCc1cccc(C(F)(F)F)c1)c1cc(S(=O)(=O)N2CCOCC2)ccc1F	.	.	?	-3%	?	?	-6%	.
Cc1ccc(CSC2=Nc3ccccc3C3=NC(CC(=O)NCc4cccs4)C(=O)N23)cc1 (stereo not drawn)	.	-1.3%	27%	.	?	.	.	6%
CCc1cccc(C)c1NS(=O)(=O)c1ccc(-n2cccn2)cc1	.	4.2%	0%	.	0%[46.1 µM]	.	.	12%
O=c1c2cnn(-c3ccccc3)c2ncn1Cc1ccccn1	-4%	3.7%	-8%	-2%	8%	2%	14%	5%
Cc1cc(C)c(CC(=O)c2ccccc2)c(C)c1	.	.	-4%	.	-17%	-6%	14%	.
CCOc1ccc(C(=O)NCCC(=O)NCCCC(=O)O)cc1	2%	2.4%	20%	1%	?	4%	1%	-3%
(next part)
SMILES	NS1 function inh	Cruzain inh Det	StopGo reporter	SARS PLP yeast	Lassa entry inh	Marburg entry inh	RE007 growth inh	Cruzain noTriton
COc1ccc(CC2c3cc(OC)c(OC)cc3CCN2C)cc1OC (stereo not drawn)	10%	-4.9%&-11%	-21%	0%	.	.	5%	-5%&-1%
COc1cccc(-c2nc(NCCN3CCOCC3)c3ccccc3n2)c1O	-6%	-2.3%	-16%	-10%	-3%	-2%&-2%	6%[3.69 µM]	-5%
COc1cc(C(=O)NCCC(=O)NC(C)CCc2ccccc2)cc(OC)c1OC (stereo not drawn)	-7%	.	18%	-1%	.	.	11%	.
COc1oc(-c2ccc(Cl)cc2)nc1C(F)(F)F	2%	-7.5%	-7%	6%	0%	-10%	-6%	-6%
CC(C)CN(C(=O)CCNC(=O)c1ccc(Cl)cc1)C1CCS(=O)(=O)C1 (stereo not drawn)	.	.	-8%	2%	5%[46.1 µM]	?	-7%	.
C=CCn1c(SCC(=O)Nc2ccc(C(=O)O)cc2)nc2scc(-c3ccccc3)c2c1=O	.	.	-27%	-30%	15%	17%	3%	.
Cc1ccc(C)c(NC(=O)c2ccc3c(c2)CCN3S(C)(=O)=O)c1	.	0.1%	17%&2%	.	-2%[46.1 µM]	?	16%	10%
